# RGS16-Gao = modulates binding between human RGS16 and Galphao; O15492+P09471; bead-based flow cytometry RGS16-Galphao binding, fluorescence; actives lie on both sides; binding response (% of control), % at 10 µM; 220,000 compounds, 0.38% hits;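 active = below 25% or above 175%, edge rows of some plates excepted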;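 note: Galphao activated by GDP with aluminum fluoride before binding; 100% = wells without compound and 0% = beads without RGS; some results beyond the cut were filed as inactive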
# INS promoter inh = TRM-6 insulin promoter activity inhibition; TRM-6 cells (human fetal islet line), insulin promoter-eGFP reporter, imaging; reporter expression induced with tamoxifen; inhibition, % at 2 µM; 130,000 compounds, 0.9% hits;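 active = inhibition above the mean plus 3 SD, with well images judged a real hit on visual review, cut at about 60% in these data, passing the limit was not always enough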
# HSV augment = HSV replication enhancement | HSV replication augmentation in cells, fold increase | maximum fold increase | 220,000 compounds, 0.005% hits;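 active = peak rise of 1.5-fold or more in the series; tested in PC3 cells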;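 note: first round at 10 µM; read as green reporter fluorescence; hits show the peak of a series up to 25 µM; 1 = signal of infected wells without compound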
# GALR2 agonist = agonists of human galanin receptor 2 (GALR2) | GALR2-expressing cells, agonist activation read-out | activation, %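 (tested at 5 µM)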 | 140,000 compounds, 0.48% hits | AID 803;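 active = above mean plus 3 SD of all compounds, about 5% in these data, not always enough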;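 note: 0% = vehicle buffer wells and 100% = reference agonist at full effect; tested in CHO reporter cells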
# PKD1 kinase inh = blocks activity of human protein kinase D1 | Q15139 | PKD1 kinase fluorescence polarization assay | inhibition, %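 (about 10 µM by stock and volumes)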 | 200,000 compounds, 0.056% hits | AID 797;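 active = inhibition of 50% or more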;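 note: controls were vehicle for no effect and a reference inhibitor for full effect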
# Target sequence (Q15139 whole entry, looked up): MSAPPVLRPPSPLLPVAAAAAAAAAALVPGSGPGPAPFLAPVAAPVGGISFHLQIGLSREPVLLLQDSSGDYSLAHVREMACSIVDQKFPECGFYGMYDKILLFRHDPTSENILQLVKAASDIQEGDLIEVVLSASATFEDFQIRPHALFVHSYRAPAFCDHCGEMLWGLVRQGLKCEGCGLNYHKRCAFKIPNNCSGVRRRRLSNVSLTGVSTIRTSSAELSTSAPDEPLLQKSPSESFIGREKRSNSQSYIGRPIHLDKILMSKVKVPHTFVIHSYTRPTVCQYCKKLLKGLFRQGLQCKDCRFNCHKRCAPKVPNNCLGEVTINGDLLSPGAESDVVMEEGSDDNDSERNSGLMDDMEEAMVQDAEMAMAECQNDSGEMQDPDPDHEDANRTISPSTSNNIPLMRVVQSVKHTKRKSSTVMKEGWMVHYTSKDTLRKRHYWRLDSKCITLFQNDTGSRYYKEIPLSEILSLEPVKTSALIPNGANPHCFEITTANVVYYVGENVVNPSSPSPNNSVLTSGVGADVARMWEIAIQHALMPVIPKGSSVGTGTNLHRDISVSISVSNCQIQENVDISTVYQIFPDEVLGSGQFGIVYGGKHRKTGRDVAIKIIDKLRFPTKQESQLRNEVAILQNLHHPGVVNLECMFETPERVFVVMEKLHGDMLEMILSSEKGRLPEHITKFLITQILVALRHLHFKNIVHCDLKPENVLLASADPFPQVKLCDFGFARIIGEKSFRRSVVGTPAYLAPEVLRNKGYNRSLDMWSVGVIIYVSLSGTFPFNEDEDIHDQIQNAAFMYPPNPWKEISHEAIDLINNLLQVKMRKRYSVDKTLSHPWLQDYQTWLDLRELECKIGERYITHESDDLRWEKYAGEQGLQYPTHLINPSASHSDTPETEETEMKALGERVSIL
# INS promoter inh cell count = also measured in INS promoter inh; calls as there; normalized cell count, %; measured here: cell count, toxicity; reference of the scale not given here;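 cells exposed to compound for 48 h; stained nuclei by imaging scaled within each plate; lower means fewer cells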
# HSV augment primary fold = further read-out of HSV augment, marked with its call; fold increase; compound at 10 µM; measured here: primary screen fold increase 10 uM; tested in PC3 cells;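 GFP signal in the first replicate; 1 = infected wells without compound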
# The depositor's hits bear a star; i = inactive; · = not tested or not shown.
SMILES,RGS16-Gao,INS promoter inh,INS promoter inh cell count,HSV augment,HSV augment primary fold,GALR2 agonist,PKD1 kinase inh
Cc1nc2ccccc2c2c1C(=O)N(CCC1=CCCCC1)C2=O,90,35,130,i,0.82,1.1,-4
CNC(=S)N/N=C(\C)c1ccc(C)c(C)c1,111,-17,108,i,0.87,0.1,-10
O=C(Nc1ccc(F)cc1)N1CCn2c(nc3ccccc32)C1,130,·,·,i,1.4,-2.1,-8
O=C(NC1CCS(=O)(=O)C1)C1CCCCN1S(=O)(=O)c1ccc(Cl)cc1 (stereo not drawn),88,-9,82,i,0.83,-0.7,-7
COc1ccc(CCNC(=O)c2cc3c(=O)n(C)c4ccccc4c3n2C)c(OC)c1,82,·,·,i,0.88,·,·
CCOC(=O)C1=C(C)NC(C)=C(C(=O)OCC)C1/C=C/c1ccccc1OC,102,·,·,i,0.84,-0.8,-2
COc1cccc(SCc2noc(C(=O)NCC3CCCO3)c2C(=O)O)c1 (stereo not drawn),103,-8,143,i,0.95,-2.8,-17
Cc1cc(N2C(=O)CC(C(C)c3ccccc3)C2=O)no1 (stereo not drawn),81,-3,134,i,0.96,-2.5,-7
CN(CCOc1ccccc1)CC(=O)Nc1ccc(Cl)c(S(=O)(=O)N(C)C)c1,99,·,·,i,0.99,·,-3
Cc1ccc(C(=O)C[n+]2cccc3ccccc32)cc1,448,-96,115,i,1.1,-1.8,2
Fc1ccc(C2c3[nH]c4ccccc4c3CCN2Cc2cccn2-c2ncccn2)cc1 (stereo not drawn),109,7,107,i,0.91,·,-1
Cc1cc(Nc2ccccc2F)n2nc(C)nc2n1,103,10,83,·,·,-0.6,5
CC(=O)c1cc(NC(=O)c2ccc([N+](=O)[O-])cc2)c(=O)oc1C,99,·,·,i,0.99,·,3
Cc1cc2nc(-c3ccccc3)cc(=O)n2[nH]1,95,·,·,i,0.89,·,·
O=C(O)c1ccc(N2C(=O)CC(N3C(=O)/C(=C/c4ccc(Cl)cc4)SC3=S)C2=O)cc1 (stereo not drawn),103,·,·,i,1.1,·,·
NC(=O)C1(N2CCCCC2)CCN(C(=O)c2cccs2)CC1,100,·,·,i,0.94,-1.0,-6
Cc1ccc(C)c(OCC(O)CN2CCC(C)CC2)c1C (stereo not drawn),131,·,·,i,0.86,-1.2,3
Cc1sc2nc(C3CC3)nc(SCC(=O)N3CC(=O)Nc4ccccc43)c2c1C,100,24,112,i,0.79,-2.2,-5
CCSc1nc(-c2ccc(OC)cc2)ccc1C#N,107,13,75,i,0.96,-0.8,-6
CCn1c(COc2cccc(OC)c2)nnc1SCC(=O)N1CCOCC1,99,-79,182,i,0.85,-0.8,-4
Cc1ccc(C(=O)Oc2oc(-c3ccccc3)nc2C=Nc2ccc(N(C)C)cc2)cc1,99,17,92,i,1,-0.1,-3
COc1ccccc1CCNC(=O)C1CCCO1 (stereo not drawn),97,38,94,i,1,-2.6,-9
CC(C)(C)c1ccc(OCC(=O)N/N=C/c2ccc(N3CCOCC3)cc2)cc1,104,-29,83,i,0.84,0.4,-6
Cc1[nH]n(-c2ccccc2)c(=S)c1C=NCCCN=Cc1c(C)[nH]n(-c2ccccc2)c1=S,-0.3*,42,109,·,·,-0.3,-6
CC(=O)c1cc(CN2CCC(N3CCC(C(=O)N4CCCC4)CC3)CC2)cs1,93,-27,71,i,0.83,·,5
Cc1nnc(NC(=O)c2ccc3ccccc3c2)o1,106,-29,144,i,0.92,-2.6,-5
O=S(=O)(c1ccc(Cl)cc1)N1CCN(C2CCN(Cc3ccccc3)CC2)CC1,106,-29,74,i,1.1,-1.4,-6
CCOC(=O)c1nn(-c2ccccc2)c2nnc(Cc3ccc(C)cc3)c(=O)n12,103,77*,111*,i,0.98,-0.5,-9
Cc1ccc(S(=O)(=O)N2CCCC2C(=O)OCc2nc3ccccc3s2)cc1 (stereo not drawn),102,-8,77,i,0.99,-0.5,-11
C#CCOCCOCCOCCNc1nc(N2CCN(C(=O)[C@H](CCCCN)n3cc([C@@H](N)C(C)CC)nn3)CC2)nc(N2CCN(C(=O)[C@H](Cc3ccc(O)cc3)n3cc([C@@H](N)CC(C)C)nn3)CC2)n1 (stereo partly drawn),94,·,·,i,0.8,·,4
CCN1CCc2c(sc(NC(=S)NC(=O)c3ccccc3)c2C#N)C1,76,-46,89,i,1.1,-1.4,-12
CCOC(=O)C1=C(CNCCc2ccc(Cl)cc2)NC(=O)NC1c1cccc([N+](=O)[O-])c1 (stereo not drawn),103,·,·,i,1,·,-3
COc1ccc(OCC(=O)OC(C)CN2CCOCC2)cc1 (stereo not drawn),88,-169,75,i,1,-0.7,-8
Cc1ccc(NC(=S)N2CCC(N(C)CC3CCCO3)CC2)cc1C (stereo not drawn),162,69,108,·,·,·,5
Cc1cc(NC(=O)c2cc(-c3ccncc3)nc3c(C)cccc23)no1,89,-124,9,i,0.52,-0.8,-1
CCCCN1C(=O)C(NC(=O)c2cccnc2)(C(F)(F)F)C2=C1CC(C)(C)CC2=O (stereo not drawn),105,20,54,i,0.83,0.5,-11
CN(C)c1ncc(S(=O)(=O)c2ccc(Cl)cc2)c(-c2ccccc2)n1,104,·,·,i,1.2,-0.1,-10
O=C(COC(=O)CCCSc1nc2ccccc2[nH]1)Nc1ccc(Oc2ccccc2)cc1,92,·,·,i,1.1,-1.2,4
COc1cc(/C=C(/C#N)c2ccccc2F)ccc1OCc1ccccc1,152,·,·,i,1.1,0.8,2
Cc1ccc(-c2ccc(=O)n(CC(=O)NCc3ccc(F)cc3)n2)cc1,98,50,121,i,0.92,·,2

# Some entries already given, limited to GALR2 agonist, INS promoter inh and HSV augment.
structure | GALR2 agonist | INS promoter inh | HSV augment
Cc1ccc(NC(=S)N2CCC(N(C)CC3CCCO3)CC2)cc1C (stereo not drawn) | · | 69 | ·
Cc1cc(NC(=O)c2cc(-c3ccncc3)nc3c(C)cccc23)no1 | -0.8 | -124 | i
CCCCN1C(=O)C(NC(=O)c2cccnc2)(C(F)(F)F)C2=C1CC(C)(C)CC2=O (stereo not drawn) | 0.5 | 20 | i
CN(C)c1ncc(S(=O)(=O)c2ccc(Cl)cc2)c(-c2ccccc2)n1 | -0.1 | · | i

# Following part.
SMILES,RGS16-Gao,INS promoter inh,INS promoter inh cell count,HSV augment,HSV augment primary fold,GALR2 agonist,PKD1 kinase inh
Cc1ccc(Cl)cc1N1CCN(C(=O)c2cn(C)c(=O)c3c2c2ccccc2n3C)CC1,100,69,118,i,0.59,-1.5,5
CCCCNc1ccc(C(CC(N)=O)NC(=O)Cc2ccc(Br)cc2)cc1[N+](=O)[O-] (stereo not drawn),97,·,·,i,0.94,·,·
COc1ccc([C@H]2C=C(C(=O)O)O[C@@H](OCCCCO)C2)cc1,96,·,·,i,0.64,·,·
O=C(CSc1nc2ccncc2[nH]1)Nc1ccccc1C(F)(F)F,104,-15,74,i,0.94,-0.8,-9
Cc1cccc(C(=O)Nc2onc(C)c2C#N)c1,101,0,111,i,0.79,-2.6,3
Cn1c(=O)n(C)c2cc(NC(=O)C(F)(F)F)ccc21,62,68,101,i,0.99,-4.2,-15
Cc1ccc(S(=O)(=O)N(CC(=O)N/N=C/c2cccc(Cl)c2)c2cccc3cccnc23)cc1,93,-10,105,·,·,-1.3,7
CN(C)c1ccc(-c2nn3c(-c4ccc(Cl)cc4)nnc3s2)cc1,100,19,130,i,0.83,-0.3,-11
CO/N=C\Cc1oc(=O)c(NC(=O)c2ccccc2)cc1C(=O)OC,99,35,174,i,0.95,0.5,-1
C=CCN=C(NC#N)SCC(=O)NCc1ccccc1,102,21,104,i,0.96,-2.5,-12
COc1ccc(/C=C(/Sc2nnc(-c3ccc(Cl)cc3)o2)C(=O)O)cc1,99,·,·,i,0.97,·,2
C=CCn1c(COc2ccc(Cl)cc2)nnc1SCc1ccc(C#N)cc1,98,17,198,i,0.98,-0.5,-9
O=C(CSc1nnc(NC(=O)C2CC2)s1)Nc1ccc(F)cc1,94,·,·,i,0.91,-0.3,4
CCCn1c(NC(=O)c2cccc(S(=O)(=O)N3CCCC3)c2)nc2ccccc21,102,-100,14,i,0.87,-1.5,-5
COc1ccc(C2C(C(N)=O)=C(C)Nc3nc(-c4cccc(Cl)c4)nn32)cc1OC (stereo not drawn),97,-46,162,i,1.1,-1.0,-6
COc1ccc(Oc2nc(-c3ccccc3)ncc2C(=O)O)cc1,103,54,116,i,1,·,-2
COC(=O)c1ccccc1NC(=O)CCCn1nc([N+](=O)[O-])cc1C,97,-21,138,i,0.96,·,-1
CCOC(=O)c1c(NC(=O)c2ccccc2C)sc2c1CC(C)(C)OC2,96,·,·,i,0.95,1.3,-4
Cc1ccc2nc(-c3ccc(NC(=O)C(C)N4C(=O)c5ccccc5C4=O)cc3)sc2c1 (stereo not drawn),102,11,118,i,1,-0.2,-7
CCOC(=O)CNC(=O)C1c2cc(OC)c(OC)cc2C(=O)N(C)C1c1ccccc1F (stereo not drawn),101,0,109,i,0.9,0.1,-15

# Given tab-delimited: entries from further up
Molecule	RGS16-Gao	INS promoter inh	INS promoter inh cell count	HSV augment	HSV augment primary fold	GALR2 agonist	PKD1 kinase inh
COc1ccc(C2C(C(N)=O)=C(C)Nc3nc(-c4cccc(Cl)c4)nn32)cc1OC (stereo not drawn)	97	-46	162	i	1.1	-1.0	-6
COc1ccc(Oc2nc(-c3ccccc3)ncc2C(=O)O)cc1	103	54	116	i	1	·	-2
COC(=O)c1ccccc1NC(=O)CCCn1nc([N+](=O)[O-])cc1C	97	-21	138	i	0.96	·	-1
CCOC(=O)c1c(NC(=O)c2ccccc2C)sc2c1CC(C)(C)OC2	96	·	·	i	0.95	1.3	-4
Cc1ccc2nc(-c3ccc(NC(=O)C(C)N4C(=O)c5ccccc5C4=O)cc3)sc2c1 (stereo not drawn)	102	11	118	i	1	-0.2	-7
CCOC(=O)CNC(=O)C1c2cc(OC)c(OC)cc2C(=O)N(C)C1c1ccccc1F (stereo not drawn)	101	0	109	i	0.9	0.1	-15

# The list continues:
SMILES,RGS16-Gao,INS promoter inh,INS promoter inh cell count,HSV augment,HSV augment primary fold,GALR2 agonist,PKD1 kinase inh
Cc1cc(C)n(CC(=O)c2cccc(N)c2)n1,102,·,·,i,0.96,·,-5
COCCCNC(=O)C(F)(F)C(F)(F)C(=O)NCCCOC,74,-69,96,i,1,-1.4,-13
O=C(Nn1c(SCc2ccccc2F)nc2ccsc2c1=O)c1ccccc1,51,-41,87,i,0.95,-0.3,-2
COc1ccc(C2=NOC(C(=O)NCc3ccccc3)C2)cc1 (stereo not drawn),100,9,109,·,·,0.9,10
CCOC(=O)/C(C#N)=C\c1cccnc1,100,-7,87,i,0.96,·,1
CCOC(=O)c1sc(NC(=O)c2ccc(OC(C)=O)cc2)nc1C,111,-40,107,i,1,·,4
CCC(=O)c1cn(CC(=O)NCc2cccnc2)c2ccccc12,115,43,102,i,1.1,-2.5,-2
COC(=O)c1ccc(C(=O)OC)c(NC(=S)N2CCC(N3CCCCC3)CC2)c1,97,·,·,i,0.9,·,-4
CCCCNC(=O)/C=C/c1ccc(OC)c(Br)c1,103,52,135,i,0.97,-2.2,-22
Cc1nc(C(=O)N2CCCC(C(=O)c3ccc(Cl)cc3)C2)cs1 (stereo not drawn),99,·,·,i,0.89,·,·
Fc1ccc(N/N=C/c2ccncc2)c(F)c1,141,59,74,i,1.1,-1.1,8
N#Cc1ccccc1CSc1ccccn1,103,-250,28,i,0.88,-2.3,-8
N#Cc1ccc(OCC(=O)OCC(=O)Nc2cc(C(F)(F)F)ccc2N2CCOCC2)cc1,87,-16,119,i,0.89,-2.9,6
Cc1ccc(S(=O)(=O)NCCNC(=O)c2cc(OCC(F)(F)F)ccc2OCC(F)(F)F)cc1,102,-86,78,i,0.82,1.0,-18
COc1ccc(/C=C/C(=O)NC(=S)NNC(=O)c2cnccn2)cc1,80,·,·,i,0.82,·,·
CC(=O)CSc1cc(-c2ccccc2)nc2ncnn12,107,·,·,i,0.89,·,·

# Individual results from the entries so far:
# `COc1ccc(/C=C/C(=O)NC(=S)NNC(=O)c2cnccn2)cc1` | HSV augment primary fold: 0.82
# `N#Cc1ccc(OCC(=O)OCC(=O)Nc2cc(C(F)(F)F)ccc2N2CCOCC2)cc1` | PKD1 kinase inh: 6
# `CCOC(=O)/C(C#N)=C\c1cccnc1` | RGS16-Gao: 100
# `Cc1nc(C(=O)N2CCCC(C(=O)c3ccc(Cl)cc3)C2)cs1` (stereo not drawn) | HSV augment primary fold: 0.89
# `Fc1ccc(N/N=C/c2ccncc2)c(F)c1` | RGS16-Gao: 141
# `Cc1cc(C)n(CC(=O)c2cccc(N)c2)n1` | HSV augment primary fold: 0.96

# This is a random part of the collection, and some 1.3% of all compounds hit somewhere here.
